High-throughput results (PubChem BioAssay)
D2 ag – activates the human D2 dopamine receptor | P14416 | DiscoveRx PathHunter D2 beta-arrestin, luminescence, 90 min; 100% = 57 uM dopamine signal | activation, % (test concentration not listed) | 0.084% of 360,000 active | AID 624465; in the data active = activation above about 40%; inconclusive = about 15% to 40%; inactive = below about 15%; further: compound concentration not given in the record; the text of the record calls up to 30% inactive
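DiscoveRx PathHunter D2 beta-arrestin cells (2,100/well) attached overnight, then compound-stimulated 90 min at 37 C in HBSS/10 mM HEPES/0.1% Tween-20 buffer; beta-galactosidase complementation read by luminescence after 1 h at ambient temperature. Dopamine 57 uM final (EC100) as control.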
D2 potentiator – positive allosteric modulators of human D2 dopamine receptor. P14416. DiscoveRx D2 beta-arrestin cells, luminescence, 90 min; 100% = 57 uM dopamine signal. potentiation, % (no concentration beside the values). 0.23% of 360,000 active. AID 624464; active = potentiation of 50% or more; inconclusive = 30% to 50%; inactive = 30% or less;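 further: compound concentration not given in the record; tested on top of an EC20 dose of dopamine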
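PathHunter beta-arrestin assay in DiscoveRx D2 cells. Compounds were added with an EC20 of dopamine (50 nM final) for 90 min at 37 deg C. Luminescence was read 1 h after detection reagent, with 57 uM dopamine as the EC100 control.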
gsp antag – antagonizes gsp, the McCune-Albright syndrome mutation; gsp-mutant cells, cAMP HTRF, 30 min; control for the full effect not named in the record; Potency, µM (doses to about 76.9 µM), inactives show top-dose activity change, negative = inhibition, most hits filed as inhibitors; 0.4% of 340,000 active; active = falling curve of any shape with a large fitted effect; inconclusive = falling curve, mostly with a smaller effect; inactive = flat or rising curve; cell line not stated here;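 further: intracellular cAMP measured with PDE inhibitor Ro 20-1724 present during compound exposure; potency means the concentration at half of the fitted maximal effect; on the % scale 0 is the no-effect control and ±100 the full control effect; nearly all actives have a fitted effect of over 65% in size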
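Cells in G418 medium, seeded 16-24 h, 37C; buffer exchange to DPBS + 1 mM CaCl2, 0.5 mM MgCl2, 0.05% BSA; cpds in DMSO + […] (300 uM stock), 30 min 37C; HTRF cAMP detection.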
Six1-Eya2 inh – blocks human Six1 binding to Eya2. Q15475+O00167. activity change, % (no concentration beside the values). AID 651725. 0.56% of 360,000 active. AlphaScreen GST-Six1/His-Eya2 binding, biochemical; hits give low values; control for the full effect not named in the record; in the data active = activity change below about -65%; inconclusive = about -30% to -65%; inactive = above about -30%; further: on the % scale 0 is the no-effect control and ±100 the full control effect; compound concentration not given in the record
Target sequence (O00167 whole entry, looked up): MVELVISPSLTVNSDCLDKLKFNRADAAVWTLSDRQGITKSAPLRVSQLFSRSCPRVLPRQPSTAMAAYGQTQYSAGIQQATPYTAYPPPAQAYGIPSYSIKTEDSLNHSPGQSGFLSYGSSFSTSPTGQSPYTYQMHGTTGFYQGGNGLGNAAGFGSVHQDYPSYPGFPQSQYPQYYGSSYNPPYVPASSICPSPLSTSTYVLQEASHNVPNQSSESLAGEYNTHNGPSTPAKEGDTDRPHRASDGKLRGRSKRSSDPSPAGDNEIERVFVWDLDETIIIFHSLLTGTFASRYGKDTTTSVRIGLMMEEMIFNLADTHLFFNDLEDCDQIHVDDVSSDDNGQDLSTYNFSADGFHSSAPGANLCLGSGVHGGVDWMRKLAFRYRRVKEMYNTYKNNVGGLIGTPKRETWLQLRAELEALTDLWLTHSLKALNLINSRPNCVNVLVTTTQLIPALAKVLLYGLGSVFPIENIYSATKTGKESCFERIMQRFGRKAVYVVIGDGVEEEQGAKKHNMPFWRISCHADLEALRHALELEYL
Target sequence (Q15475 whole entry, looked up): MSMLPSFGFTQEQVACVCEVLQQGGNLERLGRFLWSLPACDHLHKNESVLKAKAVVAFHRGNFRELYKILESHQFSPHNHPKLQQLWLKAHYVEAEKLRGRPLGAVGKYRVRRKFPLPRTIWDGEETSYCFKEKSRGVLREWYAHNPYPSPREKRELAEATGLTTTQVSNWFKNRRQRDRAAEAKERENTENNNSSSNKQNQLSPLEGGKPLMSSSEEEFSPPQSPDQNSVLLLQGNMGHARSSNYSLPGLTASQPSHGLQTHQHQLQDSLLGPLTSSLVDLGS
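Compounds are tested against tagged Six1 and Eya2 proteins bridged by glutathione donor and nickel acceptor beads; after a one-hour incubation at 37 °C without light, AlphaScreen emission is recorded.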
CtBP-E1A inh – blocks the CtBP interaction with E1A; AlphaScreen GST-E1A/His-CtBP binding, 1536-well; hits give low values; control for the full effect not named in the record; activity change, % (no concentration beside the values); 0.49% of 340,000 active; in the data active means activity change below about -65%; inconclusive means about -30% to -65%; inactive means above about -30%; further: on the % scale 0 is the no-effect control and ±100 the full control effect; compound concentration not given in the record
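Homogeneous bead-based format: GST-tagged E1A captured on glutathione donor beads, His-tagged CtBP on nickel acceptor beads; compounds precede bead addition by 2 h at 37 °C.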
gsp agonist – activates gsp, the McCune-Albright syndrome mutation; gsp mutant cells, cAMP HTRF, 30 min; control for the full effect not named in the record; Potency, µM (top dose mostly 76.9 µM), inactives show top-dose activation (cAMP increase), usual class: activators; 0.13% of 340,000 active; AID 624287; active = well fitted activation curve with a large enough effect; inconclusive = small, poorly fitted or top-dose-only effect, or another doubt; inactive = no such curve, though single readings can be large or run the other way; cell line not stated here;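 further: phosphodiesterase inhibitor Ro 20-1724 added with compounds to block cAMP breakdown; potency means the concentration at half of the fitted maximal effect; nearly all actives have a fitted effect of over 60% in size; about a fifth of the inactives were tested at one dose only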
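Cells stably selected in G418 were plated at 2000/well, grown 16-24 hr, then given compounds in DMSO with the PDE inhibitor […] (300 uM solution added) for 30 min at 37C; cAMP was read by HTRF.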
An asterisk follows results filed as active; u = inconclusive; x = no result given; [ ] = another dose, or the depositor's remark.

Order of results: D2 potentiator, CtBP-E1A inh, Six1-Eya2 inh, D2 ag, gsp agonist, gsp antag
> COc1cc(C(O)c2nc(-c3cccc(C(C)C)c3)cs2)ccc1F (stereo not drawn)
  6.7, 2.0, 2.3, 3.9, x, x
> CC[C@]12c3[nH]c4cc(-c5ccco5)ccc4c3CCN1C(=O)[C@@H](CC(=O)NCc1ccc(OC)c(OC)c1)C[C@@H]2C(=O)N1CCN(C(=O)c2ccco2)CC1
  3.4, -12.4, -10.8, 0.8, x, -4.1%
> CCCCSc1nnc(CSc2nc3nc(C)cc(C)n3n2)o1
  -2.2, -12.0, -13.3, -0.6, 20.9%, -4.4%
> CCCC(C(=O)Nc1ccc(S(=O)(=O)Nc2ncccn2)cc1)c1ccccc1 (stereo not drawn)
  2.1, -1.2, -2.8, -1.0, -10.2%, 2.0%
> CCn1nc(C(=O)OC(C(=O)c2c[nH]c3ccccc23)c2ccccc2)c2ccccc2c1=O (stereo not drawn)
  -7.6, -19.3, -6.1, -2.2, -5.8%, 4.2%
> COC(=O)c1c(NC(=O)c2ccoc2C)sc(C)c1C
  6.4, 3.2, 3.1, -1.9, 24.6%, 17.8%
> COc1ccc(S(=O)(=O)N(CC(=O)O)Cc2ccccc2)cc1OC
  -0.6, -2.3, 9.0, -0.5, -23.0%, 0.6%
> COCCn1cnc2c1c(=O)n(Cc1ccccc1C#N)c(=O)n2Cc1ccccc1
  -5.6, -1.6, 3.2, -5.6, u, 2.5%
> CN(C)S(=O)(=O)c1cccc(C(=O)N2CCN(S(=O)(=O)c3ccc4c(c3)OCCO4)CC2)c1
  -13.1, 4.6, 19.9, -2.6, -17.2%, x
> N#CCCN1CCN(S(=O)(=O)c2ccc3c(c2)CCC3)CC1
  -1.3, 3.2, -3.7, -7.4, -40.8%[inhibitor], 18.9%
> O=C1CC2(CCN(C(=O)c3cccc(F)c3)CC2)Oc2ccccc21
  -4.9, 1.9, 0.8, -0.3, -3.9%[15.4 µM], 2.6%
> CCOC(=O)Cc1csc(NC(=O)CSc2ccc(Br)cc2)n1
  -12.2, -7.9, -10.1, -0.1, -7.6%, -8.1%
> Cc1ccc(C2CC2c2n[nH]c(=S)n2-c2ccc(C)cc2)cc1 (stereo not drawn)
  -5.9, -4.5, -4.8, -2.4, 6.8%, -9.6%
> COCCCn1c(SC(C)C(=O)NC2CC2)nc2ccccc2c1=O (stereo not drawn)
  0.9, -12.0, -4.1, -2.1, -12.6%[15.4 µM], -9.1%
> CC1=NNC(=O)C(CC(=O)Nc2ccc(Cl)c(Cl)c2)C1 (stereo not drawn)
  -8.8, 6.7, 0.1, -4.0, 0.7%[15.4 µM], 12.2%
> Cc1nnc(SCC(=O)Nc2cccc(S(=O)(=O)NC3=NCCCCC3)c2)n1Cc1ccccc1
  -9.3, x, 5.1, -1.0, -12.7%, -4.0%
> Cn1c2ccc(F)cc2c2nnc(SCCN3CCCCC3)nc21
  -57.9, x, -13.6, -4.0, 4.2%, -1.9%
> O=C(c1cc2c(s1)-c1ccccc1OC2)N1CCc2ccccc2C1
  -1.3, 15.9, 10.8, -2.6, 12.1%, 4.2%
> CN1CCN(C(=S)c2ccc([N+](=O)[O-])cc2)CC1
  -15.5, -18.9, -10.7, -1.4, -8.8%, 10.9%
> O=C(Cc1cccs1)Nc1nnc(-c2ccncc2)s1
  -3.1, 0.1, -0.3, 2.2, 1.0%, -3.6%
> CC1(C)CC(=O)C=C(NC2CCCC(O)C2)C1 (stereo not drawn)
  -8.1, -14.6, 10.7, 0.5, 6.4%, 9.9%
> O=C(/C=C/Nc1ccc(F)c(Cl)c1)c1ccco1
  -2.2, -1.4, 2.4, 2.7, u, 1.3%
> O=C(CNS(=O)(=O)c1c(F)cccc1F)NC1CCCc2ccccc21 (stereo not drawn)
  -3.0, -4.1, -1.5, -3.1, -3.5%, 1.1%
> Cc1ccccc1NC(=S)N(Cc1cccnc1)Cc1ccccc1Cl
  -4.9, -8.0, -1.5, -3.2, -2.9%[15.4 µM], 1.1%
> Cc1[nH]nc(N=Cc2c(O)n(C)c(=O)n(C)c2=O)c1-c1ccccc1
  -5.6, 2.9, 3.6, -3.0, -36.6%[inhibitor], 2.5%
> Cc1cc(N2CCOCC2)nc2ccc(NC(=O)CCC(=O)N3CCC(C)CC3)cc12
  12.1, 1.7, -2.1, 1.4, -35.0%[inhibitor], -20.8%
> O=C(Nc1ccccn1)c1ccc2c(c1)OCCO2
  1.4, -2.1, 13.1, -5.9, -22.2%, 2.8%
> Cc1ccc(Nc2c([N+](=O)[O-])c(=O)n(C)c3ccccc23)cc1C
  -10.5, -29.8, -27.3, -4.2, 39.2%, -8.6%
> CCN(C[C@H]1N[C@@](Cc2ccccc2)(C(=O)OC)[C@H]2C(=O)N(Cc3ccccc3)C(=O)[C@@H]12)C(C)=O
  -1.1, -16.8, 3.2, -0.7, x, -1.1%
> O=C(c1c(O)cc(O)cc1O)C1c2c(cc(O)c3c2O[C@H](c2ccc(O)cc2)[C@@H](O)C3)OC1c1ccc(O)cc1 (stereo partly drawn)
  1.2, 0.1, 0.9, 2.7, x, -28.7%
> O=C(NC1CCN(S(=O)(=O)c2ccc(F)cc2)CC1)c1ccc(F)cc1
  -2.0, -4.3, -0.8, -1.8, 10.6%, 1.4%
> COc1ccccc1CC(=O)Nc1cc(Cl)ccc1O
  -8.7, -17.6, -10.2, 0.5, 9.9%, -12.2%
> FC(F)(F)c1nnc2ccc(Cl)nn12
  0.2, 7.0, 0.8, -2.6, -50.6%[inhibitor], 14.0%
> COc1ccc(C2=CN3CCCCC3CC2=O)cc1OC (stereo not drawn)
  -7.2, 6.0, -0.2, 0.7, x, -2.8%
> O=C(c1ccccc1Br)N1CCCC(c2nc(-c3cccs3)no2)C1 (stereo not drawn)
  -2.7, -5.5, -0.3, -6.7, 20.5%, u
> Cc1ccc(N2CC(C(=O)Nc3nnc(SCC(=O)NCC4CCCO4)s3)CC2=O)cc1C (stereo not drawn)
  -9.4, 9.8, -3.1, -0.3, -7.4%, 2.7%
> CC(C)(C)C(=O)N1CCN(S(=O)(=O)c2ccc3c(c2)OCCCO3)CC1
  -0.6, 6.3, 2.2, 0.0, -6.0%, -9.8%
> OC(CN1CCNCC1)Cn1c2ccccc2c2ccccc21 (stereo not drawn)
  -17.9, -2.5, -4.8, -3.5, -32.5%[inhibitor], 11.3%
> Cc1ccc2c(c1)C1(OCCCO1)C(=O)N2CC(=O)NN
  -0.4, x, -3.0, -3.6, 20.7%, -7.1%
> C/C=C(\C)C(=O)OC(C)(C)[C@H]1Cc2cc3ccc(=O)oc3cc2O1
  -7.5, 23.1, -11.2, 1.0, -54.1%[inhibitor], -10.0%
> CCN(CC)C(=O)CC(c1cc(OC)c(OC)c(OC)c1)c1c(O)cc(OC)cc1OC (stereo not drawn)
  -4.7, 4.5, 1.3, -4.1, x, -5.8%
> CC(=O)Nc1ccc(S(=O)(=O)Nc2cc(Cl)ccc2N2CCOCC2)cc1
  2.6, -3.7, -8.8, 7.3, 23.5%[15.4 µM], -17.3%
> COc1ccc(C(CNC(=O)c2ccc(S(=O)(=O)N3CC(C)CC(C)C3)cc2)N(C)C)cc1 (stereo not drawn)
  -33.5, -3.7, -18.6, -9.6, 16.1%, 2.3%
> CN(Cc1nc(Cc2ccccc2F)no1)Cc1cccc2ncccc12
  -10.2, 6.7, -5.0, 1.2, -8.5%[15.4 µM], -10.2%
> Fc1ccccc1NC(=S)Nn1cnnc1
  -15.4, -5.0, -0.2, -1.2, 14.9%, 6.7%
> COc1ccc(NC(=O)NNC(=O)COc2ccc3ccccc3c2)cc1OC
  -13.5, -2.8, 2.3, -1.9, -10.4%[15.4 µM], 3.1%
> CC1CN(S(=O)(=O)c2ccc(CN3C(=O)c4cccnc4C3=O)cc2)c2ccccc2O1 (stereo not drawn)
  -5.9, -2.2, 1.4, -3.0, 16.3%, 3.5%
> CCOC(=O)N1CCN(C(=O)c2ccccc2-c2ccccc2)CC1
  -3.8, 2.9, -2.8, -1.5, -49.8%[inhibitor], 5.0%
> CCOC(=O)C1CCN(S(=O)(=O)c2c(C)n[nH]c2C)CC1
  9.0, 3.3, 3.7, -1.2, 17.4%, -3.3%
> COC(=O)CNC(=O)COC(=O)/C=C/c1ccccc1[N+](=O)[O-]
  0.0, 10.4, -0.1, -4.6, -10.9%, -12.8%

Continuation.
Order of results: D2 potentiator, CtBP-E1A inh, Six1-Eya2 inh, D2 ag, gsp agonist, gsp antag
> O=C(c1cccs1)N1CCC(c2nc3c(nnn3Cc3ccccc3Cl)c(=O)[nH]2)CC1
  3.9, -14.3, -12.3, 0.4, 18.2%[15.4 µM], 0.9%
> CCOCCCNC(=O)/C(C#N)=C/c1cc(OC)c(O)c([N+](=O)[O-])c1
  -31.4, 7.7, -1.8, -9.2, -3.2%[15.4 µM], x
> O=C(COC(=O)CCc1ccc(S(=O)(=O)N2CCOCC2)cc1)NC1CCCC1
  -14.6, 19.0, 14.9, -0.5, 20.6%, 1.0%
> O=C(NCC1CCCO1)c1onc(CSc2ccccc2F)c1C(=O)O (stereo not drawn)
  -42.6, 0.4, 1.0, -3.0, x, 6.7%
> COc1cc(OC)cc(C(=O)NNC(=O)c2ccccn2)c1
  -15.4, -90.0*, -91.5*, -7.2, -8.0%[15.4 µM], -6.8%
> CC(C)(C)c1ccc(CN(Cc2ccco2)Cc2nnnn2C2CCCC2)cc1
  -15.1, 1.2, -0.7, 1.1, -3.7%, 0.6%
> Cc1ccc(N(CC(N)=O)C2SC(=O)N(C)C2=O)cc1 (stereo not drawn)
  2.4, -0.6, 3.6, -3.3, -8.7%, 10.3%
> O=C(c1ccc([N+](=O)[O-])cc1)N1CCN(C(=O)C2CCCCC2)CC1
  0.1, 0.6, 3.9, -3.4, -1.2%, -2.4%
> CCn1c(SCCC(C)C)nnc1-c1c[nH]c2ccccc12
  -3.2, 8.9, -2.5, -3.2, u, -24.9%
> COc1ccccc1C(=O)NC(=O)COC(=O)c1ccc([N+](=O)[O-])cc1Cl
  27.2, -0.6, 0.9, u, -9.5%, 8.1%
> CN(C)Cc1nc2c(c(=O)[nH]1)C(C)(C)Cc1ccccc1-2
  -28.5, 4.2, 2.8, -1.3, 0.3%, -10.8%
> Cc1ccc(NC(=O)C(C)c2cccc(C(=O)c3ccccc3)c2)cc1 (stereo not drawn)
  2.0, 10.2, 1.2, -0.1, -39.9%[inhibitor], -25.3%
> Cc1ccc(C)c2nc3sc(C(=O)O)cc3cc12
  4.8, -0.4, -25.2, 0.1, 1.3%, -18.0%

Two entries from above in a different format:
> CN(C)Cc1nc2c(c(=O)[nH]1)C(C)(C)Cc1ccccc1-2
  D2 potentiator = -28.5	CtBP-E1A inh = 4.2	Six1-Eya2 inh = 2.8	D2 ag = -1.3	gsp agonist = 0.3%	gsp antag = -10.8%

> Cc1ccc(NC(=O)C(C)c2cccc(C(=O)c3ccccc3)c2)cc1 (stereo not drawn)
  D2 potentiator = 2.0	CtBP-E1A inh = 10.2	Six1-Eya2 inh = 1.2	D2 ag = -0.1	gsp agonist = -39.9%[inhibitor]	gsp antag = -25.3%
